Methyltransferases: Primary Screen for Target Class Profiling of Small Molecule Inhibitors of Methyltransferases; purified enzyme, MTase-Glo SAH luminescence; active compounds read low; 25,000 tested, 3.9% active; calls only at 40 µM; active = -50% or lower on at least one of six enzymes; inconclusive = the cases between; inactive = as a rule above -30% on all six;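 note: enzymes were COMT GAMT GNMT HNMT NNMT and PNMT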
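Each enzyme was assayed with SAM and its substrate. SAH formation detected by MTase-Glo luminescence; single-point 40 uM screen[…].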
Calls only; i = inactive; ? = inconclusive; + = active, no number. % is set by controls: 0 for no effect and ±100 for the full control effect.

SMILES	Methyltransferases
CC(C(=O)NCc1ccc(F)cc1)n1ccc2cc(S(=O)(=O)N3CCCC3)ccc21 (stereo unspecified)	i
Cc1ccc(C(=O)N2CCC3(CC2)CC(N2CCN(CC(C)C)CC2)CCO3)cn1 (stereo unspecified)	i
CC(=O)N1CCCN(c2ncnc3c2CN(C2CCCCC2)C(=O)CN3C)CC1	i
CC1CCN(S(=O)(=O)c2ccc3c(ccn3CC(=O)NCCc3ccco3)c2)CC1	i
COCCN1CC(CO)C2(CCN(Cc3cccc(OC)n3)CC2)C1 (stereo unspecified)	i
Cc1cc2c(cc1S(=O)(=O)Nc1ccc(C(C)C)cc1)n(C)c(=O)n2C	i
C[C@]12CCC(=O)C=C1CC[C@@H]1[C@@H]2C(=O)C[C@@]2(C)[C@H]1CC[C@]2(O)C(=O)CO	i
COc1ccc(C(=O)N2CC[C@@](O)(C3CCOCC3)[C@H](C)C2)o1	i
O=C1CC2(CCN(C(=O)C3CCCN3C(=O)c3ccc(Cl)nc3)CC2)Oc2ccccc2N1 (stereo unspecified)	i
CCC(C(=O)N1CCN(c2ncccn2)CC1)n1ccc2cc(S(=O)(=O)N3CCCCC3)ccc21 (stereo unspecified)	i
O=[S+]([O-])(c1ccccc1)N1CC2(CCCCN2Cc2cccnc2)Cc2ccccc21 (stereo unspecified)	i
CCOc1ccc(CN2C(=O)c3cc(C(=O)OC)nn3CC2(C)C(=O)NC2CCCCC2)cc1 (stereo unspecified)	i
CCN1CCC(N2CCCC(N3CCN(c4cccc(Cl)c4)CC3)C2)CC1 (stereo unspecified)	i
CCOC(=O)C(C)Oc1cc2oc(=O)cc(-c3ccccc3)c2cc1Cl (stereo unspecified)	i
CN1C(=O)c2cc(C(=O)N3CCN(c4ccccc4)CC3)nn2CC1(C)C(=O)NC1CCCC1 (stereo unspecified)	i
Cc1ccccc1CN1C(=O)c2cc3sccc3n2CC1(C)C(=O)NC1CCCCC1C (stereo unspecified)	i
CC(=O)N1CCC(C(=O)NCc2nn(Cc3ccccc3)c3ccccc23)CC1	i
CC(C)Oc1ccc(CN2C(=O)c3cc4ccccc4n3CC2(C)C(=O)NCc2ccccc2)cc1 (stereo unspecified)	i
O=C(Cn1ccc2cc(S(=O)(=O)N3CCCCC3)ccc21)NCCCc1ccccc1	i
CCCn1c(=O)c2ccc(C(=O)NC(C)C)cc2n2c(SCc3cccc(F)c3)nnc12	i
C/C=C/c1ccc(O[C@@H]2O[C@H](CO)[C@@H](O)[C@H](O)[C@H]2O)c(OC)c1	i
COc1ccc(OC)c(N2C(=O)C(Cl)=C(N3CCCCC3)C2=O)c1	?
COc1ccc(NC(=O)Cn2c(=O)oc3cc(S(=O)(=O)N4CCCC4)ccc32)cc1	i
O=C(NC1CCCN(c2ccc3nnc(-c4ccccc4)n3n2)C1)c1ccc(F)cc1 (stereo unspecified)	i
CCc1ccc(CN2C(=O)c3c(C(=O)OC)ncn3CC2(C)C(=O)NC2CCCCCC2)cc1 (stereo unspecified)	i

2 entries picked at random from the list so far, as already listed:
SMILES	Methyltransferases
CC(=O)N1CCC(C(=O)NCc2nn(Cc3ccccc3)c3ccccc23)CC1	i
CCc1ccc(CN2C(=O)c3c(C(=O)OC)ncn3CC2(C)C(=O)NC2CCCCCC2)cc1 (stereo unspecified)	i

More structures
SMILES	Methyltransferases
CCc1cc2c(cc3n2CC(C)(C(=O)NC2CCCCC2)N(Cc2cccc(OC)c2)C3=O)s1 (stereo unspecified)	i
O=C(NCCCn1ccnn1)c1cccc(S(=O)(=O)N2CCOCC2)c1	i
CC1=C(C(=O)Nc2cc(Cl)ccc2Cl)C(c2ccco2)C2=C(CCCC2=O)N1 (stereo unspecified)	i
Cn1cccc1CN1CCC(N2CCNC2=O)CC1	i
Cc1ccc(N2C(=O)c3ccc(-c4ccco4)n3CC2(C)C(=O)NC2CCCC2)c(C)c1 (stereo unspecified)	i
COc1cc(Nc2nc3c(S(=O)(=O)c4ccccc4)nnn3c3ccccc23)cc(OC)c1	i
CCCN1C(=O)c2cc(C(=O)NCCc3ccccc3)nn2CC1(C)C(=O)NC1CCCC1 (stereo unspecified)	i
COc1ccc2cc3n(c2c1)CC(C)(C(=O)NC1CCCCC1)N(CCN1CCN(C)CC1)C3=O (stereo unspecified)	i
O=C(C[C@@H]1C(C(=O)O)=CO[C@@H](O[C@@H]2O[C@H](CO)[C@@H](O)[C@H](O)[C@H]2O)/C1=C\CO)OCCc1ccc(O)cc1	i
C[C@@H](CC[C@@H]1[C@@]2(C)CCCC(C)(C)C2CC[C@@]1(C)O)CC(=O)O (stereo partly specified)	i
C[S+](=O)([O-])NC1CCN(c2nc3ncccc3o2)C1 (stereo unspecified)	i
CCOC(=O)c1cc2n(n1)CC(C)(C(=O)NC1CCCCC1)N(c1cccc(F)c1)C2=O (stereo unspecified)	i
CC12CCC(OC3OC(CO)C(O)C(OC4OC(CO)C(O)C(O)C4O)C3O)CC1=CCC1C2CCC2(C)/C(=C3/COC(=O)C3)CCC12O (stereo unspecified)	i
CCC(C)NC(=O)c1ccc2c(=O)n(C(C)C)c3nn(Cc4ccc(N5CCCC5=O)cc4)c(=O)n3c2c1 (stereo unspecified)	i
C=CC(=O)Nc1cccc(Sc2nc(Nc3ccc(N4CCN(C)CC4)cc3)ncc2Cl)c1	?
CCOc1ccccc1CN1C(=O)c2c(C(=O)OC)ncn2CC1(C)C(=O)NC1CCCCC1 (stereo unspecified)	i
CCCn1c(=O)c2ccc(C(=O)NC3CCCC3)cc2n2c(=O)n(CC(=O)c3cccc(OC)c3)nc12	i
O=C(NC1CCCCC1)c1ccc2c(=O)nc3c(-c4ccccc4)n[nH]n3c2c1	i
Cc1nc(-c2cn3c(n2)-c2ccc(-c4cnn(C(C)(C)C(N)=O)c4)cc2OCC3)n(C(C)C)n1	i
O=C(CCc1nnn2c1CN(Cc1cn[nH]c1-c1ccc(F)cc1)CC2)N1CCCC1	i
COc1ccccc1CN1C(=O)c2cc(C(C)(C)C)nn2CC1(C)C(=O)NCc1ccccc1 (stereo unspecified)	i
COc1ccc2c(c1)OCC(C(=O)NCc1noc(-c3ccco3)n1)C2 (stereo unspecified)	i
C[C@@H]1O[C@@H](OC[C@H]2O[C@@H](OCc3ccccc3)[C@H](O)[C@@H](O)[C@@H]2O)[C@H](O)[C@H](O)[C@H]1O	+
CC1(C)CC[C@]2(C(=O)O)CC[C@]3(C)C(=CCC4[C@@]5(C)C[C@H](O)[C@H](O[C@@H]6O[C@H](CO)[C@@H](O)[C@H](O)[C@H]6O)[C@@](C)(CO)C5[C@H](O)C[C@]43C)[C@@H]2C1 (stereo partly specified)	i
CC1(C(=O)NC2CCCCCCC2)Cn2c(cc3occc32)C(=O)N1C1CCCCC1 (stereo unspecified)	i
SMILES	Methyltransferases
CCCn1c(=O)c2cc(Cl)ccc2n2c(SCC(=O)Nc3ccc(C)cc3)nnc12	i
O=C(C1CCCCC1)N1CCC(n2cc(-c3nc(-c4ccccc4)no3)nn2)CC1	i
O=C(c1ccoc1)N1CCN(c2cc(C3CC3)ncn2)CC(O)C1 (stereo unspecified)	i
Cc1ccc(CN2CCn3c(nnc3[C@@H]3C[C@@H](O)CN3Cc3cccnc3)C2)s1	i
C=C1CC23CC1CCC2C12OC(=O)C(C)(C(O)CC1O)C2C3C(=O)O (stereo unspecified)	i
C[C@@H]1O[C@@H](O[C@H]2[C@H](O[C@H]3[C@H](O[C@H]4CC[C@@]5(C)C(CC[C@]6(C)C5CC=C5[C@@H]7CC(C)(C)CC[C@]7(C(=O)O[C@@H]7O[C@H](CO)[C@@H](O[C@@H]8O[C@@H](C)[C@H](O)[C@@H](O)[C@H]8O)[C@H](O)[C@H]7O)CC[C@]56C)C4(C)C)OC[C@H](O)[C@@H]3O)O[C@H](CO)[C@@H](O)[C@@H]2O)[C@H](O)[C@H](O)[C@H]1O (stereo partly specified)	i
Cc1nc2c3ccccc3n3c(CCCC(=O)NCC(C)c4ccccc4)nnc3n2n1 (stereo unspecified)	i
COC(=O)C1=CO[C@@H](O)C2C(CO)=CCC12 (stereo partly specified)	i
CCCn1c(=O)c2ccc(C(=O)NC3CCCCC3)cc2n2c(=O)n(Cc3ccc(C)cc3)nc12	i
CCOc1ccc2nc(SCCN3CCOCC3)[nH]c2c1	i
CCc1cc2c(cc3n2CC(C)(C(=O)NC2CCCCCC2)N(Cc2cccnc2)C3=O)s1 (stereo unspecified)	i
O=C(NCC1CCOCC1)c1ccoc1	i
CC(C)Cn1c(=O)c2ccccc2n2c(SCc3ccc(Cl)cc3)nnc12	i
O=C(COc1cccc(-c2nnc3n2CCCC3)c1)NCc1ccccc1	i
C/C=C(\C)C(=O)OC1C[C@@]2(COC(C)=O)O[C@H]2/C=C\[C@@]2(C)O[C@@H]2[C@H]2OC(=O)C(COC(C)=O)=C12 (stereo partly specified)	i
O=C(CCc1nnc2n(CCc3ccccc3)c(=O)c3ccccc3n12)NCc1ccc(F)cc1	i
O=C(Nc1ccc2c(c1)OCCO2)N1CC(c2nc(CCOCC3CC3)no2)C1	i
CC(C)c1ccc(NC(=O)Cn2c(=O)oc3cc(S(=O)(=O)N4CCCCC4)ccc32)cc1	i
C[C@]1(CO)CN(c2cc(C(=O)Nc3ccc4c(c3)-c3c(c(C(N)=O)nn3-c3ccc(F)cc3)CC4)c(Cl)cn2)C[C@@]1(C)CO	i
CN1C(=O)c2cc(C(=O)N3CCN(c4ccccc4)CC3)nn2CC1(C)C(=O)NC1CCCCC1 (stereo unspecified)	i
CCCCN1C(=O)c2cc(C(=O)Nc3ccc(C)cc3Cl)nn2CC1(C)C(=O)NC1CCCC1 (stereo unspecified)	i
COc1ccc(-c2nnc3n(Cc4ccc(F)cc4)c(=O)c4ccccc4n23)cc1	i
CC1(C(=O)NC2CCCCC2)Cn2c(ccc2-c2ccccc2)C(=O)N1CCC1=CCCCC1 (stereo unspecified)	i
CN(Cc1ccc(N2CCNC2=O)cc1)CC1CCCN(CCc2ccc(F)cc2)C1 (stereo unspecified)	i
COc1ccc(-c2nnn3c2nc(NCc2ccccc2)c2ccccc23)cc1	i
SMILES	Methyltransferases
CN(Cc1ncc[nH]1)C(=O)C1CCC(=O)N(CCc2ccccn2)C1 (stereo unspecified)	i
CC1(C(=O)NC2CCCCC2)Cn2c(cc3occc32)C(=O)N1CCCc1ccccc1 (stereo unspecified)	i
COCCCNC(=O)C1(C)Cn2nc(-c3ccccc3)cc2C(=O)N1Cc1ccc(OC)cc1 (stereo unspecified)	i
CC(CO[C@@H]1O[C@H](COC(=O)/C=C/c2ccc(O)c(O)c2)[C@@H](O)[C@H](O)[C@H]1O)C1(O)COC(=O)C1 (stereo partly specified)	i
COC(=O)c1ncn2c1C(=O)N(c1cc(C)ccc1C)C(C)(C(=O)NC1CCCC1)C2 (stereo unspecified)	i
O=C(Nc1cc(C2CC2)nn1-c1ccccc1)c1ccc(C(F)(F)F)cc1	i
O=c1[nH]c2cccnc2n1CCc1ccccc1	i
COc1ccc(Br)cc1CN1C(=O)c2cc3ccccc3n2CC1(C)C(=O)NCCCOC(C)C (stereo unspecified)	i
CCn1c(=O)n([C@H]2CCCN(c3nccc(-c4cc5ccccc5o4)n3)C2)c2ccccc21	i
CCC[C@H]1CN(Cc2c(C)noc2C)C[C@@H]1NC(=O)C1CCOCC1	i
COc1ccc(CCC(=O)N2CCCC(c3nc(-c4ccccc4)no3)CCNC(=O)CC2)cc1 (stereo unspecified)	i
CCc1ccccc1NC(=O)c1cc2c(N3CCSCC3)nc(C)cn2n1	i
CNc1ncnc2c1ncn2[C@@H]1O[C@H](CO)[C@@H](O)[C@H]1O	i
C=C1C2(C)CC3C4(C)C=CC(=O)OC(C)(C)C4CCC3(C)C1(C(=O)OC)C(=O)C(C)(O)C2=O (stereo unspecified)	i
Cc1ccc(CN2CC(Oc3cccc(C(=O)N4CCOCC4)c3)C2)s1	i
O=C(NCCN1CCN(c2cccc3c2OCCO3)CC1)c1ccc(F)cc1	i
CCc1noc([C@@H]2CC(F)(F)CN2C(=O)c2cc(C3CC3)[nH]n2)n1	i
CN1C(=O)c2cc(C(=O)NCc3ccccc3F)nn2CC1(C)C(=O)NC1CCCCC1 (stereo unspecified)	i
COc1ccc(NS(=O)(=O)c2ccc3c(c2)n(C)c(=O)n3C)cc1OC	i
COc1cc(OC)c2ccc(=O)oc2c1	?
COCCN(CCOC)C(=O)[C@@H](C)C1CC[C@@]2(C)CC[C@H](NC(=O)c3cncnc3)[C@@H](C)[C@@H]2[C@H]1O (stereo partly specified)	i
CCCCN1C(=O)c2cc(C(=O)Nc3ccccc3OC)nn2CC1(C)C(=O)NC1CCCC1 (stereo unspecified)	i

Among those listed so far, these contain fluorine:
SMILES	Methyltransferases
CC(C(=O)NCc1ccc(F)cc1)n1ccc2cc(S(=O)(=O)N3CCCC3)ccc21 (stereo unspecified)	i
CCCn1c(=O)c2ccc(C(=O)NC(C)C)cc2n2c(SCc3cccc(F)c3)nnc12	i
O=C(NC1CCCN(c2ccc3nnc(-c4ccccc4)n3n2)C1)c1ccc(F)cc1 (stereo unspecified)	i
CCOC(=O)c1cc2n(n1)CC(C)(C(=O)NC1CCCCC1)N(c1cccc(F)c1)C2=O (stereo unspecified)	i
O=C(CCc1nnn2c1CN(Cc1cn[nH]c1-c1ccc(F)cc1)CC2)N1CCCC1	i
O=C(CCc1nnc2n(CCc3ccccc3)c(=O)c3ccccc3n12)NCc1ccc(F)cc1	i
C[C@]1(CO)CN(c2cc(C(=O)Nc3ccc4c(c3)-c3c(c(C(N)=O)nn3-c3ccc(F)cc3)CC4)c(Cl)cn2)C[C@@]1(C)CO	i
COc1ccc(-c2nnc3n(Cc4ccc(F)cc4)c(=O)c4ccccc4n23)cc1	i
CN(Cc1ccc(N2CCNC2=O)cc1)CC1CCCN(CCc2ccc(F)cc2)C1 (stereo unspecified)	i
O=C(Nc1cc(C2CC2)nn1-c1ccccc1)c1ccc(C(F)(F)F)cc1	i
O=C(NCCN1CCN(c2cccc3c2OCCO3)CC1)c1ccc(F)cc1	i
CCc1noc([C@@H]2CC(F)(F)CN2C(=O)c2cc(C3CC3)[nH]n2)n1	i
CN1C(=O)c2cc(C(=O)NCc3ccccc3F)nn2CC1(C)C(=O)NC1CCCCC1 (stereo unspecified)	i

A portion of the library, so the mix of outcomes need not match the whole.
